# AmpC nodet inh – Promiscuous and Specific Inhibitors of AmpC Beta-Lactamase (assay without detergent) | AmpC nitrocefin hydrolysis, absorbance 480 nm, no detergent; potencies from a single point are estimates | Potency, µM (series often up to 28.7 µM), inactives show top-dose activity change, negative = inhibition | 1.8% of 71,000 active | AID 585, 2007; active = falling curve, for most hits resting on a single point; inconclusive = weak or doubtful change; inactive = flat or rising curve; further: % of control where 0% means no effect; about half of the hits show no inhibition at the top dose; a quarter of the inactives give rising signals
# Target sequence (P00811 whole entry, looked up): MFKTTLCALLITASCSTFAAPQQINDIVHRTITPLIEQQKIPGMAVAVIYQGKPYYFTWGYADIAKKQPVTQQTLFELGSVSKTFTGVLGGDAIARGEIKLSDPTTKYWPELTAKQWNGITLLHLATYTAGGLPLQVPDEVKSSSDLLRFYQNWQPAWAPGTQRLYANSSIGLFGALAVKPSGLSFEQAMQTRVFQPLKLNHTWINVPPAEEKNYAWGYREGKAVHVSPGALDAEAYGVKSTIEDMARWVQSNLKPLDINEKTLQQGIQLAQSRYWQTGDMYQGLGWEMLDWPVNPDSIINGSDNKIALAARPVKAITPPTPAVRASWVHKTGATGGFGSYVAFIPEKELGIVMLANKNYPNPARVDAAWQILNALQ
#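 AmpC, 20 mM phosphate pH 7.0; 15 min cpd preinc, RT; start with nitrocefin (800 uM stock); A480 kinetic read, 20 s intervals, 4 min. No-enzyme wells = negative control.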
# * marks the source's active call; other numbers are inactive results; ? = inconclusive; [ ] = dose if it differs, or a comment. Potency means the concentration at half of the fitted maximal effect. Not all compounds are listed; rates above refer to the full screens.
SMILES,AmpC nodet inh
COc1ccc(NC(=O)C(C)NS(=O)(=O)c2ccc(NC(C)=O)cc2)cc1Cl (stereo unspecified),-16%
CCC1=NC(c2ccccc2OC)N(O)C1(C)C (stereo unspecified),0%
CCN1CCCC1Cn1c(-c2ccccc2)nc2c(N(CCOC)CCOC)nc(C)nc21 (stereo unspecified),91%
COCc1cc(C)nc2sc(C(=O)N3CCCC3)c(N)c12,-8%
COc1cc(NS(=O)(=O)c2ccc(NC(C)=O)cc2)cc(OC)c1,-8%
CC1CCN(C(=O)c2scc3c2OCCO3)CC1,10%
CCn1c(=O)n(CC(=O)NCc2ccccc2OC)c(=O)c2ccccc21,2%
CCc1ccc2nc(NC(=O)CSCc3c(C)noc3C)sc2c1,4%
CC1CCCC(C)N1C(=O)c1cc(-c2ccc(Cl)c(Cl)c2)on1 (stereo unspecified),26%
O=C(NCc1cccs1)[C@@H]1CSC2c3ccccc3C(=O)N21 (stereo partly specified),-12%
COc1ccc(Cl)cc1NC(=O)C1CCCN(S(=O)(=O)c2cccc3nonc23)C1 (stereo unspecified),7%
CCN1CCN(Cc2c(C)[nH]c3ccc(C(=O)OC)cc3c2=O)CC1,-2%
CCc1ccccc1NC(=O)c1onc(C)c1Cl,-5%
CCOCCCNC(=O)C(c1ccccc1)N(Cc1ccc2c(c1)OCO2)C(=O)CNC(C)=O (stereo unspecified),72%
CCN(CC)C(=O)Cn1ncc2c1-c1ccccc1OC2,-2%

# Given bar-delimited: part of the list above.
SMILES | AmpC nodet inh
COc1ccc(NC(=O)C(C)NS(=O)(=O)c2ccc(NC(C)=O)cc2)cc1Cl (stereo unspecified) | -16%
CCC1=NC(c2ccccc2OC)N(O)C1(C)C (stereo unspecified) | 0%
CCN1CCCC1Cn1c(-c2ccccc2)nc2c(N(CCOC)CCOC)nc(C)nc21 (stereo unspecified) | 91%
COCc1cc(C)nc2sc(C(=O)N3CCCC3)c(N)c12 | -8%
COc1cc(NS(=O)(=O)c2ccc(NC(C)=O)cc2)cc(OC)c1 | -8%
CC1CCN(C(=O)c2scc3c2OCCO3)CC1 | 10%
CCn1c(=O)n(CC(=O)NCc2ccccc2OC)c(=O)c2ccccc21 | 2%
CCc1ccc2nc(NC(=O)CSCc3c(C)noc3C)sc2c1 | 4%
CC1CCCC(C)N1C(=O)c1cc(-c2ccc(Cl)c(Cl)c2)on1 (stereo unspecified) | 26%
O=C(NCc1cccs1)[C@@H]1CSC2c3ccccc3C(=O)N21 (stereo partly specified) | -12%
COc1ccc(Cl)cc1NC(=O)C1CCCN(S(=O)(=O)c2cccc3nonc23)C1 (stereo unspecified) | 7%
CCN1CCN(Cc2c(C)[nH]c3ccc(C(=O)OC)cc3c2=O)CC1 | -2%
CCc1ccccc1NC(=O)c1onc(C)c1Cl | -5%
CCOCCCNC(=O)C(c1ccccc1)N(Cc1ccc2c(c1)OCO2)C(=O)CNC(C)=O (stereo unspecified) | 72%
CCN(CC)C(=O)Cn1ncc2c1-c1ccccc1OC2 | -2%

# Further structures follow:
SMILES,AmpC nodet inh
CSc1nc(=O)n(-c2ccccc2)c(C)c1C(C)=O,3%
O=C(c1ccco1)N1CCN(C(=O)c2cc3c(=O)oc4ccccc4c3s2)CC1,22%
Cc1cc(C)nc(-n2c(Nc3ccccc3)cc(=O)c3c(C)n(-c4ccccc4)c(=O)nc32)n1,-1%
COC(=O)C1=C(C)n2nnnc2NC1c1cc2ccccc2o1 (stereo unspecified),-6%
Cn1c(=O)n(C)c2cc(S(=O)(=O)N3CCCc4ccccc43)ccc21,82%
N#Cc1nc(-c2ccc(F)cc2)oc1NCCN1CCOCC1,34%
O=C(O)c1ccc(S(=O)(=O)Cc2ccccc2)cc1,-14%
Cc1nc(NCCO)c2nnn(Cc3ccccc3F)c2n1,15%
CCCCOc1ccccc1C(=O)NCC(=O)O,3%
COc1ccc(OC)c(-c2nnc(SCC(=O)NC3CCCCC3)o2)c1,53%
O=C(Nc1ccc(C(F)(F)F)cc1)C1CCCN1S(=O)(=O)c1cccc2cccnc12 (stereo unspecified),8%
CSc1ccccc1C(=O)NCc1ccc2c(c1)OCO2,-3%
CCC(C)NC(=O)CCC(=O)Nc1ccc2nc(N3CCOCC3)cc(C)c2c1 (stereo unspecified),31%
O=C(CSc1ncccn1)NCCc1ccccc1,-10%
Cc1cc(=O)n(-c2ccc3ccccc3n2)[nH]1,7%
CCCc1cc(N2CCCC(C(=O)Nc3ccc(OC)cc3OC)C2)n2ncnc2n1 (stereo unspecified),90%
COc1cccc(-c2nnn(CC(=O)O)n2)c1,-20%
Cc1nc2sc(C(c3ccco3)N3CCN(c4ccccc4)CC3)c(O)n2n1 (stereo unspecified),-18%
C=C(C)Cn1c(CCNC(=O)C(C)(C)C)nc2ccccc21,23%
COc1ccc2c(c1)C(=NO)c1cc(OC)ccc1-2,12%
COc1ccc(NC(=O)CSc2nc3c(c(=O)n2-c2ccc(F)cc2)SCC3)c(OC)c1,?
Cc1cc(C(=O)CSc2nnc(-c3cccc(F)c3)n2N)c(C)n1Cc1ccc2c(c1)OCO2,16µM*[single pt active]
Cc1ccc2[nH]c(-c3ccccc3)cc(=O)c2c1,2%
CC(C)OCCCNC(=O)CN1C(=O)CC(C)(C)S(=O)(=O)c2ccccc21,6%
CCCCCC(=O)Nc1cc(N(C)C)nc2ccccc12,30%
COc1ccccc1NC(=O)N1CCCC1C(=O)NC1CCCCC1 (stereo unspecified),4%
CC1CC(c2ccccc2)n2nc(NC(=O)c3ccco3)nc2N1 (stereo unspecified),-7%
O=C(COC(=O)C12CC3CC(CC(C3)C1)C2)N1CCN(S(=O)(=O)c2ccccc2)CC1,57%
CCC(=O)Nc1ccccc1C(=O)OCC(=O)Nc1ccc(S(N)(=O)=O)cc1,-7%
CN(C(=O)COC(=O)CNS(=O)(=O)/C=C/c1ccccc1)C1CCS(=O)(=O)C1 (stereo unspecified),-9%
CC(C)N1C(=O)C2ON(c3ccccc3)C(c3cccs3)C2C1=O (stereo unspecified),1%
COc1ccc(NC(=O)N2CCCC3(CCN(C(=O)c4csnn4)CC3)C2)cc1,13%
COc1cc(NS(=O)(=O)c2ccc(NC(=O)CSC3=NCCS3)cc2)nc(OC)n1,-17%
CCCCN1CN(S(=O)(=O)c2cccs2)c2nc3ccccc3nc21,-6%
CCCCCC1CC(=O)N(Cc2ccc(Cl)cc2)C(=O)N1 (stereo unspecified),-16%
COc1ccc(-c2cc(C(=O)Nc3cnn(Cc4ccccc4C)c3)no2)cc1OC,19%
COc1ccc(Oc2ncc3nc(-c4cccs4)c(=O)n(Cc4cccc(OC)c4)c3n2)cc1,-15%
CCn1c(COc2ccccc2)nnc1SCC(=O)Nc1ccc2c(c1)OCCO2,41%
Ic1ccc2c(c1)N(c1ccccc1)c1cc(Nc3ccc4nc5ccc(I)cc5[n+](-c5ccccc5)c4c3)ccc1N2,-2%[5.75 µM]
N#C/C(=C1/CCCCCN1)c1nc2ccccc2s1,-7%
c1ccc2c(c1)CCC[C@@H]2C1=NCCN1,0%[12.8 µM]
Cn1c(SCC(=O)C(C)(C)C)nnc1-c1cccnc1,7%
Cn1c(=O)[nH]c(=O)c2c1nc(N(CCO)Cc1ccccc1)n2CCCc1ccccc1,86%
C[C@@]12CC[C@H](O)C[C@@H]1CC[C@H]1[C@@H]2C[C@@H](O)[C@]2(C)[C@@H](C3=CC(=O)OC3)CC[C@]12O,-16%[12.8 µM]
COc1ccccc1Nc1nc(N)nc(CN2CCc3ccccc3C2)n1,26%
CC1Cc2ccccc2N1C(=O)CSc1nc(-c2ccco2)cc(C(F)(F)F)n1 (stereo unspecified),26%
O=C(CCCNS(=O)(=O)c1cccc2nsnc12)NCCc1ccccc1,-5%
NCCNCCNCCN,-4%
C=CCn1c(=O)/c(=C/c2ccc(O)cc2)s/c1=C(/C#N)c1nnc2n1CCCCC2,46%
CCOC(=O)c1sc(N(Cc2ccccc2)C(=O)CSc2nnc(C3CC3)n2N)nc1C,23%
CC(NC(=O)COc1ccccc1)C(=O)NC1=NCCS1 (stereo unspecified),-6%
CCOC(=O)c1sc2nc(N3CCOCC3)c3c(c2c1N)CCCC3,30%
COc1ccccc1N1CCN(S(=O)(=O)c2cn(C)c(=O)n(C)c2=O)CC1,74%
COC(=O)CSc1nc2cc(C)ccc2cc1C#N,2%
COc1ccc(N2C(=O)CC(Nc3ccc(N4CCOCC4)cc3)C2=O)c(OC)c1 (stereo unspecified),15%
COc1cc2c(cc1OC)C(c1ccc(C)o1)CC(=O)N2 (stereo unspecified),-6%
O=c1[nH]c(NC2CCCCC2)nnc1Cc1ccccc1,-12%
Cc1ccc2c(C)c(C(=O)Nc3nnc(C)s3)oc2c1,-7%
CC1(C)CC(=O)C2=C(C1)N(CCN1CCOCC1)C1=C(C(=O)CC(C)(C)C1)C2c1cccc(F)c1,90%
COc1ccccc1-n1c(CNC(=O)c2ccc(S(=O)(=O)N3CCOCC3)cc2)n[nH]c1=S,9%

# Other compounds:
SMILES,AmpC nodet inh
O=C(CCCSc1nc2sc3c(c2c(=O)[nH]1)CCC3)NCCO,20%
C1=C(c2ccccc2)CCN(c2ncnc3nc[nH]c23)C1,-1%
CN1Cc2cc(C(=O)c3cc(Cl)cc(CSc4ncccn4)c3O)cnc2NC1=O,82%
COc1cccc(NC(=O)CSc2nc(N)cc(N)n2)c1,-3%
CC(C)CN(CC(C)C)S(=O)(=O)N1CCC(C(=O)NCc2ccccn2)CC1,86%
Cc1ccccc1NC(=O)CCC(=O)OCCCC(F)(F)C(F)(F)F,12%
COc1c(NC(C)=O)c2ccccc2c2ccccc12,8%[5.75 µM]
Cn1c(=NC(=O)C2CCN(S(=O)(=O)c3cccs3)CC2)sc2ccccc21,-21%
CC1(C)CC(=O)C(C=NCCN2CCNC2=O)=C(O)C1,-1%
OC(c1ccc(Cl)cc1Cl)C(Cc1cccnc1)n1cncn1 (stereo unspecified),19%
CCOC(=O)C1CCCN(Cc2ccc(O)c(OC)c2)C1 (stereo unspecified),-11%
COc1ccc(S(=O)(=O)NCc2ccco2)c2ccccc12,-3%
COc1ccc(Oc2ncc3nc(-c4cc(F)cc(F)c4)c(=O)n(C[C@H]4CCCO4)c3n2)cc1,34%
O=C(Cn1cnc2c(nnn2Cc2ccc(F)cc2)c1=O)NC1CCCC1,-4%
CC(c1ccccc1F)n1cc(C(=O)NCc2ccncc2)nn1 (stereo unspecified),-6%
O=C1CC[C@]2(O)[C@H]3Cc4ccc(O)c5c4[C@@]2(CCN3CC2CC2)[C@@H]1O5,-8%[12.8 µM]
CC1OC2C(OC1C)N(S(C)(=O)=O)CCN2S(C)(=O)=O (stereo unspecified),4%
Cc1ccc(-n2nc(C)c3c2OC(N)=C(C#N)C3c2ccc(F)cc2)cc1 (stereo unspecified),-11%
NC(=O)OCCSc1nnc(-c2cccc(C(N)=S)c2)o1,14%
O=C(Nc1nc(-c2ccco2)cs1)c1ccccc1,-23%
CC(=O)Nc1ccccc1OCC(=O)c1cc(C)n(Cc2cccs2)c1C,66%
O=C(CSc1ccccn1)Nc1ccc(Br)cn1,-10%
N#C[C@H](Cc1ccc(O)cc1)c1ccc(O)cc1,-11%
Cc1cc(N)n2nc(-c3ccccc3)cc2n1,7%
O=C(CSc1ncccn1)NCc1ccccc1,-1%
COc1cc(C(=O)Nc2cc(C)ccn2)cc(OC)c1OC,7%
CC1(C)CC(=O)C2=C(C1)Oc1ncn(CCCn3ccnc3)c(=N)c1C2c1ccccc1 (stereo unspecified),29%
Cc1nn(-c2ccccc2)c2c1C(c1cccnc1)N1C=C(S(=O)(=O)N3CCCCC3)C=CC1=N2 (stereo unspecified),123%
O=c1c(-c2ccc(Cl)cc2)nc2cnc(N3CCOCC3)nc2n1C1CC1,-3%
CCCc1nc2oc3c(NCC4CCCO4)ncnc3c2c2c1COC(C)(C)C2 (stereo unspecified),114%
CC1CCC(NC(=O)C2c3ccccc3C(=O)N2CCCN2CCOCC2)CC1 (stereo unspecified),20%
O=C(CN1C(=O)C2CC=CCC2C1=O)Nc1ccc(-c2nnc3n2CCCCC3)cc1 (stereo unspecified),25%
FC(F)(F)c1ccccc1-c1nc(NC2CCNCC2)c2ccccc2n1,2%
NC(=O)c1oc2ccc(Cl)cc2c1N,-5%
O=C(NC(C(=O)c1ccccc1)n1ccc(=O)[nH]c1=O)c1ccccc1 (stereo unspecified),-8%
C=CCSc1nc(N)c(C(=O)Nc2ccccc2C)cc1C(N)=O,-5%
COc1ccc(NC(=O)c2cc(C(C)C)on2)cc1OC,3%
CC(C)COC(=O)NCCCOC(=O)Nc1ccccc1,-3%
COc1ccccc1-c1c(C)nn2c(N3CCN(c4ccccc4OC)CC3)cc(C)nc12,-8%
OCCN1CCN(CC/C=C2\c3ccccc3Sc3ccc(C(F)(F)F)cc32)CC1,54%[12.8 µM]
O=C(Cn1cc2c(n1)CCCCC2)NCCN1CCOCC1,-16%
CCCn1c(=O)[nH]c(=O)c2c1nc(-c1ccccc1OC(F)F)n2CCOC,1%
CC(C)N(Cc1cc2ccccc2[nH]c1=O)C(=O)C1CCCCC1,17%
O=C1c2ccccc2-c2nc3ncnn3c(-c3ccccc3Cl)c21,5%
CC(C)C[C@H](NC(=O)Nc1cccc(Cl)c1)C(=O)O,0%
CCn1c(O)c(C=NCc2cccs2)c(=O)[nH]c1=O,-15%
N#Cc1nc(-c2ccc(OCc3ccccc3)cc2)oc1N1CCOCC1,50%
COc1ccc(-c2cc(C(=O)OCC(=O)N(C)C)c3ccccc3n2)cc1,113%
CCOC(=O)COc1cc2c(C(=O)OCC)c(C)oc2cc1Br,12%
Cc1ccc(C)c(NC(=O)c2ccccn2)c1,7%
Cc1cc2ncn(CC(O)COc3cccc(C(=O)O)c3)c2cc1C (stereo unspecified),-6%

# Compound activity deposited in PubChem by National Center for Advancing Translational Sciences (NCATS).
